Env fusion inh – blocks HIV Env-driven cell-cell fusion | HeLa-JRFL Env/CEM21 cell fusion, luciferase | inhibition, % at 12.3 µM | 360,000 compounds, 1.1% hits | AID 651610;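 active = mean replicate inhibition score of at least 50 and every replicate individually at or above 50; inconclusive = only one of the two criteria met; inactive = mean below 50 and not all replicates reaching 50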;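 also: 0% = plate neutral controls and 100% = maraviroc near 300 nM; one replicate is shown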
UUG fidelity – modulators of start codon recognition fidelity in yeast; S. cerevisiae UUG-firefly luciferase reporter, luminescence/redox ratio; activity score, % at 18.7 µM; 350,000 compounds, 0.13% hits;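 active = replicate mean at a twofold rise or more, about +100% in these data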;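 also: firefly luciferase made from a UUG start codon reports start codon fidelity; reporter light over untreated wells divided by growth signal over untreated wells; some hits fall short of that in this replicate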
Rce1 inhib – yeast Ras-converting enzyme inhibition | Q03530 | yeast membranes, quenched prenylated peptide cleavage fluorescence | calls only | 290,000 compounds, 0.27% hits | AID 2563;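 active = fall in fluorescence gain of 50% or more versus controls, with final raw signal at or below 3038400; inconclusive = same 50% fall but final raw signal above 3038400; inactive = fall in fluorescence gain under 50%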;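 also: plate controls were neutral control wells for no effect and wells lacking membranes for full effect; tested at 10 µM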
Target sequence (Q03530 whole entry, looked up): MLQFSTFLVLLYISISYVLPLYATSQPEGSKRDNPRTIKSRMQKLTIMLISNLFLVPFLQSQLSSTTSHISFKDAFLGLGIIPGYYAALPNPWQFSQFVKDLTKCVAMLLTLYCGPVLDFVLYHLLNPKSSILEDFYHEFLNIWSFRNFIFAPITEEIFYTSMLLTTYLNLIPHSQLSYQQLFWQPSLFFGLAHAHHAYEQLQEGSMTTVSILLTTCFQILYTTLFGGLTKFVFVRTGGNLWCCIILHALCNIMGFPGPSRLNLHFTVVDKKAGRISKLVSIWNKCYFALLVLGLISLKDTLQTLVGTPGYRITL
eIF4H inh – inhibitors of RNA binding by human eIF4H. Q15056. eIF4H fluorescence polarization binding assay. inhibition, % at 35 µM. 290,000 compounds, 0.94% hits. AID 2012;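 active = 50% or more with normal probe brightness, or confirmed in later tests; inconclusive = above 50% with abnormal brightness, or retests that disagree; inactive = below 50% or failed in later tests; about a fifth of its hits are not listed in these tables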;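 also: calls also rest on retests at 20 µM and on dose response follow-up; 0% = protein and probe with vehicle and 100% = probe without protein; strong numbers were not always called active; many hits fall short of the cut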
MT1-MMP act inh – blocks activation of human MT1-MMP; 360,000 compounds, 0.061% hits; HT1080 RFP-PRO-GFP cells, GFP/RFP ratio fluorescence, overnight; percent of plate control window, DMSO zero; GFP/RFP ratio change, % at 20 µM; P50281;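 active = GFP/RFP ratio change of at least 30% with cell ATP level not reduced by more than half and red fluorescence within 50% of control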; also: strong numbers were not always called active
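system = RFP-PRO-GFP reporter HT1080 cells | dosing = 20 µM single dose, 1% DMSO | timing = overnight cell settling, then overnight compound exposure, 37 °C, 5% CO2 | read-out basis = GFP/RFP fluorescence ratio | controls = DMSO and RFP-L50D-GFP cell wells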
CSC inhib – cancer stem cell inhibition; cancer stem cell-like cells viability, luminescence; inhibition, % at 7.5 µM; 300,000 compounds, 1.1% hits; AID 2717;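 active = mean at 75% or more and at least half the replicates too; inconclusive = mean and replicates disagree; tested in HMLE shEcad cells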;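 also: 0% = median of negative and 100% = median of positive control wells; the first replicate is given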
PABP polyA inh – blocks human PABP binding to poly(A) RNA | fluorescence polarization | inhibition, % at 35 µM | P11940 | 290,000 compounds, 1% hits;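 active = 50% or more with normal probe brightness, or confirmed in later tests; inconclusive = above 50% with abnormal brightness, or retests that disagree; inactive = below 50% or failed in later tests; about a fifth of its hits are not listed in these tables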;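 also: calls also rest on retests at 20 µM and on dose response follow-up; controls were probe without protein and protein plus probe with vehicle; some compounds called inactive have numbers as strong as hits; many hits fall short of the cut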
MT1-MMP act inh RFP – recorded beside MT1-MMP act inh, whose call it bears; RFP signal change, %; measured here: RFP expression control read;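 0 = vehicle wells; hits needed this value within 50% of zero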
Numbers without * were called inactive; i = inactive; ? = inconclusive; / = not tested or not shown; & = joins results of further samples. Some of the compounds tested (hit frequency here may not be typical).

SMILES | Env fusion inh | UUG fidelity | Rce1 inhib | eIF4H inh | MT1-MMP act inh | MT1-MMP act inh RFP | CSC inhib | PABP polyA inh
O=C(O)C1C2C=CC(C2)C1C(=O)NCc1cccc(Cl)c1 (stereo not drawn) | -27 | -10 | i | -3 | 4 | -1 | -13 | -10
O=C(c1cc2cc(Cl)ccc2[nH]1)N1CCCCC1 | -30 | -6 | i | 0 | / | / | -6 | 5
O=C(Nc1nc(-c2cccnc2)cs1)c1ccccc1Cl | -8 | 3 | i | 2 | 1 | 6 | -1 | -9
C[C@H](NC(=O)OC(C)(C)C)c1nnc(SCC(=O)c2ccc(Cl)cc2)o1 | 12 | -6 | i | 2 | 0 | -3 | 5 | 2
Cn1c(Cn2c(=O)sc3ccccc32)nnc1SCc1cccnc1 | -27 | 5 | i | -2 | 5 | 11 | / | -3
CC1CCCC(C)N1CC(O)COc1c(F)cc(Br)cc1F (stereo not drawn) | -1 | / | i | -6 | / | / | 22 | 2
CCOC(=O)c1nn(-c2ccc(OCC)cc2)c2nc(CC(C)C)c(C#N)c(=O)n12 | -32 | -6 | i | 2 | 1 | 0 | 1 | 6
C/C(=N\N=C\c1ccc(N(C)C)cc1)c1cccc([N+](=O)[O-])c1 | -47 | / | i | -33 | 1 | 3 | 12 | 7
COc1ccc(C(=O)COC(=O)CCN2C(=O)C3C4CC(C(Br)C4Br)C3C2=O)cc1 (stereo not drawn) | -152 | 6 | i | 8 | -6 | -2 | -7 | -5
COc1ccccc1-c1c(C)oc2c(CN3CCCCC3C)c(O)ccc2c1=O (stereo not drawn) | -3 | -10 | ? | 9 | -1 | -2 | -5 | 0
CCc1nnc(NS(=O)(=O)c2ccc(NC(=O)C(c3ccccc3)c3ccccc3)cc2)s1 | -12 | / | / | / | 4 | 1 | 20 | /
COc1ccc(C(=O)NCC(=O)N2CCN(C(=O)c3ccco3)CC2)cc1[N+](=O)[O-] | -1 | -5 | / | / | -1 | 1 | -1 | /
CC(OC(=O)c1ccco1)C(=O)NC1CCCC1 (stereo not drawn) | 0 | -13 | i | 0 | 2 | 4 | 17 | 5
O=C(CSc1nnc(-c2ccc(Cl)cc2)n1-c1ccc(Cl)cc1)N/N=C/c1ccco1 | -16 | 5 | i | 8 | -7 | -12 | 15 | 6
CCN(CC)c1ccc(NC(=O)c2ccc(Br)o2)cc1 | -166 | -24 | i | 0 | 0 | 2 | 0 | 9
O=C(Nc1ccc(Cl)c(S(=O)(=O)N2CCOCC2)c1)c1cn2ccccc2n1 | 13 | / | i | 2 | 3 | -8 | / | 1
CC(C)c1ccc(NC(=O)c2cc(Br)ccc2Br)cc1 | 4 | / | i | -4 | -1 | -3 | 8 | -7
Cc1ccc(C(=O)NNC(=S)NC(=O)c2ccccc2)cc1 | 18 | / | i | / | 2 | -2 | 12 | /
CCc1ccc(OCC(=O)NNC(=O)Cc2c(F)cccc2Cl)cc1 | / | -22 | i | / | 1 | 5 | -20 | /
COC(=O)c1ccc2nc(-c3ccccc3)c(Cc3ccccc3OC)n2c1 | 0 | -12 | / | / | -5 | 2 | / | /
CCCNC(=O)C(CC)NC(=O)c1cccc([N+](=O)[O-])c1 (stereo not drawn) | -10 | -16 | / | / | 8 | 1 | -20 | /
Cc1sc(NC(=O)CSc2nnc(-c3ccc(F)cc3)o2)c(C#N)c1C | -57 | -20 | i | 66* | -4 | -5 | 13 | 65*
CC(C)(C)C(=O)NC1(C(F)(F)F)NC(=O)N(c2ccccc2F)C1=O (stereo not drawn) | -3 | / | i | 0 | 4 | 5 | 2 | -2
Cc1ccc2c(N)c(C(=O)N(c3ccccc3)c3ccccc3)sc2n1 | -18 | -15 | i | -2 | 0 | -5 | -16 | -13
Cc1nc2ccc(S(=O)(=O)NCC(=O)N3CCCC(C)C3)cc2s1 (stereo not drawn) | / | 0 | i | 2 | 5 | 0 | 5 | 11
Cc1ccc(O)c(NC(=O)CSc2n[nH]c(C)c2[N+](=O)[O-])c1 | 1 | / | i | -7 | / | / | 49 | -5
Cc1nnc(NCCc2ccccc2)c2ccccc12 | -34 | -19 | i | -3 | 0 | 1 | / | -15
Cc1ccnc(NC(=O)CSc2ccc3c(c2)OCCO3)c1 | -22 | -12 | i | / | 2 | -5 | -1 | /
CC1CC(C)CN(C(=O)c2ccc(C(=O)c3ccccc3)cc2)C1 (stereo not drawn) | 8 | / | i | / | 1 | -3 | -5 | /
O=C(Nc1nnc(-c2cccs2)o1)c1cccc(F)c1 | 3 | -19 | i | / | 6 | 2 | 24 | /

A different layout for 10 compounds above.
Every second line gives: Env fusion inh	UUG fidelity	Rce1 inhib	eIF4H inh	MT1-MMP act inh	MT1-MMP act inh RFP	CSC inhib	PABP polyA inh
O=C(O)C1C2C=CC(C2)C1C(=O)NCc1cccc(Cl)c1 (stereo not drawn)
    -27	-10	i	-3	4	-1	-13	-10
O=C(c1cc2cc(Cl)ccc2[nH]1)N1CCCCC1
    -30	-6	i	0	/	/	-6	5
O=C(Nc1nc(-c2cccnc2)cs1)c1ccccc1Cl
    -8	3	i	2	1	6	-1	-9
C[C@H](NC(=O)OC(C)(C)C)c1nnc(SCC(=O)c2ccc(Cl)cc2)o1
    12	-6	i	2	0	-3	5	2
Cn1c(Cn2c(=O)sc3ccccc32)nnc1SCc1cccnc1
    -27	5	i	-2	5	11	/	-3
CC1CCCC(C)N1CC(O)COc1c(F)cc(Br)cc1F (stereo not drawn)
    -1	/	i	-6	/	/	22	2
CCOC(=O)c1nn(-c2ccc(OCC)cc2)c2nc(CC(C)C)c(C#N)c(=O)n12
    -32	-6	i	2	1	0	1	6
C/C(=N\N=C\c1ccc(N(C)C)cc1)c1cccc([N+](=O)[O-])c1
    -47	/	i	-33	1	3	12	7
COc1ccc(C(=O)COC(=O)CCN2C(=O)C3C4CC(C(Br)C4Br)C3C2=O)cc1 (stereo not drawn)
    -152	6	i	8	-6	-2	-7	-5
COc1ccccc1-c1c(C)oc2c(CN3CCCCC3C)c(O)ccc2c1=O (stereo not drawn)
    -3	-10	?	9	-1	-2	-5	0

New compounds follow
SMILES | Env fusion inh | UUG fidelity | Rce1 inhib | eIF4H inh | MT1-MMP act inh | MT1-MMP act inh RFP | CSC inhib | PABP polyA inh
OCC1N=C(c2ccccn2)OC1c1ccccc1 (stereo not drawn) | / | -13 | i | -1 | 5 | 0 | 2 | -8
CCOC(=O)CNc1nc2ccccc2n2c(C)nnc12 | 12 | / | i | -13 | 2 | 4 | -1 | -4
Cc1c(NC(=O)C(C)OC(=O)/C=C/c2ccccc2)c(=O)n(-c2ccccc2)n1C (stereo not drawn) | -1 | / | i | 3 | -1 | 0 | -21 | -2
CCOc1ccc(NC(=O)Nc2ccc3c(c2)N(C)C(=O)CS3)cc1 | 18 | -3 | i | 4 | -4 | -1 | -8 | 15
O=C(CSc1nnnn1C1CCCCC1)NCc1ccccc1 | -104 | -2 | i | -2 | 4 | 0 | -14 | -1
O=C(NCCCO)c1ccc(CSc2nc3ccccc3[nH]2)cc1 | 18 | / | i | 8 | -1 | -6 | -5 | 10
CCc1noc(C)c1C(=O)Nc1sc(C(=O)N(C)C)c(C)c1C(=O)OC | -52 | -12 | i | -5 | 5 | 4 | -8 | 2
CC(C)c1nnc(NC(=O)CCC(=O)NCCc2ccccc2)s1 | -13 | / | i | -2 | 1 | -1 | 8 | -4
S=c1[nH]nc(Cc2cccs2)n1-c1ccccc1Cl | -11 | / | i | 4 | 0 | 1 | -12 | -3
CC(=O)N1CCN(S(=O)(=O)c2cccc(C(=O)N(C)Cc3ccc(C)o3)c2)CC1 | 4 | 11 | / | / | 3 | 5 | / | /
CCOc1ccc(/C(CC)=N/NC(=O)C2(C)CC2(Br)Br)cc1 (stereo not drawn) | 16 | / | i | -2 | 5 | 5 | -7 | -3
COc1cccc(C(=O)NCCS(=O)(=O)NCCc2ccccc2)c1 | -16 | -2 | i | / | 0 | -1 | -5 | /
O=C(COC(=O)CCCN1C(=O)c2ccccc2C1=O)Nc1cc(Cl)cc(Cl)c1 | / | -4 | i | -5 | 3 | 5 | 33 | 4
COc1ccc(OC)c(NC(=O)CCn2cccc2)c1 | / | 2 | i | -7 | 2 | 4 | -15 | 0
O=C(Cn1cnnn1)OCC(=O)c1ccc(Cl)s1 | -57 | -5 | i | 33 | -96 | 3 | -15 | 0
O=C(NCc1ccccc1)N(Cc1cc2cc3c(cc2[nH]c1=O)OCCO3)CC1CCCO1 (stereo not drawn) | / | 18 | i | -7 | -2 | 4 | / | -5
CCN(CC)S(=O)(=O)c1cc(NS(=O)(=O)c2cccc(Cl)c2Cl)ccc1C | 1 | 9 | i | -2 | 0 | -1 | 65 | 2
Cc1ccc(C2C3=C(CC(C)(C)CC3=O)NC3=C2C(=O)c2ccccc23)cc1 (stereo not drawn) | -11 | / | i | -1 | -3 | -11 | -7 | -6
CCN(Cc1ccc(OC)c(F)c1)C(C)C(=O)Nc1ccc(S(=O)(=O)N2CCCC2)cc1 (stereo not drawn) | 57* | / | / | / | -6 | -6 | 5 | /
C/C=C/c1ccc(OCCN2C(=O)NC(C)(C)C2=O)c(OC)c1 | / | -14 | i | 5 | 1 | 0 | 8 | 1
CC(C)CNc1nc(Oc2ccc(=O)[nH]n2)nc(N(C)C)n1 | 10 | -21 | i | -5 | 2 | -4 | -8 | -5
Brc1cccc(-c2nnc(SCc3ccon3)n2-c2ccccc2)c1 | 7 | -8 | i | -2 | -4 | -1 | -14 | -3
O=CNc1cc(-c2cccc(F)c2)cn2c(-c3ccc(F)c(Cl)c3)cnc12 | 4 | -22 | / | / | 1 | -2 | / | /
COc1ccc(OC)c(CN(CCN2CCOCC2)C(=O)Nc2cccc(Cl)c2)c1 | -1 | / | i | -3 | 3 | 3 | -13 | 17
O=C(Nc1cccc(C(F)(F)F)c1)c1cccnc1NCCc1ccccc1 | 0 | / | i | -14 | -9 | -3 | 58 | 10
COc1cccc(CN2CCN(Cc3ccco3)CC2)c1 | -17 | -1 | i | 9 | -1 | 2 | 0 | -6
O=C(Cc1ccc(Br)cc1)NCc1ccccc1 | -115 | -14 | i | -4 | -7 | -12 | 60 | 16
Cc1nnc(NC(=O)C2CCN(c3nnnn3-c3ccccc3)CC2)s1 | -7 | -11 | i | -8 | 4 | 1 | 1 | -1
COc1ccc2c(c1)C(=O)C(=O)N2CCS(=O)(=O)c1ccccc1 | -3 | / | i | 0 | -4 | 6 | 13 | 2
CCN(CC)C(=O)C1CCCN(Cc2cccc(Cl)c2)C1 (stereo not drawn) | -25 | -37&-7 | / | / | 0 | 1 | / | /
CC(/C=C/c1ccccc1)=N/NC(=O)CCC(=O)Nc1ccccc1C | / | / | i | 2 | -1 | 0 | -4 | 4
O=C(c1cccc(Cl)c1)N1CCN(c2ccc3c(c2)C2CC3CCN2C(=O)OCc2ccccc2)CC1 (stereo not drawn) | 29 | -15 | / | / | -1 | -17 | / | /
Cc1ccc(NC(=O)CN(C)CC(=O)Nc2ccc(F)c(Cl)c2)cc1 | 21 | 14 | i | -1 | -1 | 0 | 8 | 4
CCCCN1C(=O)C(O)(CC(=O)c2c(C)n[nH]c2C)c2cc(Br)ccc21 (stereo not drawn) | -66 | -5 | i | 3 | -1 | 0 | -6 | 3

Source: PubChem BioAssay (several laboratories)
